# Ecoli rRNA inh: inhibits bacterial ribosomal RNA function over humanized ribosomes | E. coli WT GFP vs humanized-ribosome RFP mutants, fluorescence, 24 h; hits give low values; DMSO median 0, no signal -100 | actives 1.6% (n = 350,000) | GFP signal change (wild-type ribosome), % (concentration not given with the values);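 active means significant combined selectivity score with lowered wild-type GFP, culture density cut under 30%, mutant RFP and density less affected; inactive means any of these conditions unmet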; further: one replicate is shown; some compounds called inactive have numbers as strong as hits
# FGF22 binding: binders of recombinant human FGF22 by thermal shift. Q9HCT0. SYPRO orange fluorescence; percent of sucrose octasulfate shift, DMSO zero. calls only at 9.99 µM. actives 1.5% (n = 340,000). AID 651658;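 active means melting point raised past a set limit in the mean and every replicate; three in four hits are not shown here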
# Target sequence (Q9HCT0 whole entry, looked up): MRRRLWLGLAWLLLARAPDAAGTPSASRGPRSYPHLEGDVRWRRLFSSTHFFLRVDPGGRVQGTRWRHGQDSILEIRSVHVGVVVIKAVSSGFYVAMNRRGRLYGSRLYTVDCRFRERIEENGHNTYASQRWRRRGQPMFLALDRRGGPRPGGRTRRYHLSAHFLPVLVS
# Ecoli rRNA inh OD600: further read-out of Ecoli rRNA inh, marked with its call; OD600 change, %; measured here: OD600 growth;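 optical density of the mix in the first replicate; 0 = DMSO median and -100 = no signal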
# Ecoli rRNA inh RFP: second read-out of Ecoli rRNA inh, no call of its own (marks repeat the call); RFP signal change, %; measured here: RFP humanized mutant strains;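 first replicate; 0 = DMSO median and -100 = no signal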
# Numbers without * were called inactive; i = inactive; + = active, no number. Only part of the results is shown; rates above refer to the full screens.
SMILES,Ecoli rRNA inh,Ecoli rRNA inh OD600,Ecoli rRNA inh RFP,FGF22 binding
C[C@H]1CN([C@@H](C)CO)C(=O)CCCn2cc(nn2)CO[C@H]1CN(C)S(=O)(=O)c1ccc(-n2cccn2)cc1,-3,1,0.8,i
O=C(C[C@H]1CC[C@@H](NC(=O)Nc2ccc3c(c2)OCO3)[C@H](CO)O1)NCc1ccc(Cl)cc1,-9,1,0.3,i
CNC(=O)C[C@H]1CC[C@@H]2[C@H](COC[C@H](O)CN2C(=O)Nc2cccc(OC)c2)O1,4,10,-0.5,i
C[C@H]1CN([C@@H](C)CO)C(=O)c2cccc(NC(=O)Nc3cccc4ccccc34)c2O[C@@H]1CN(C)C(=O)Nc1ccc2c(c1)OCO2,-3,-1,-0.2,i
CC(C)NC(=O)N(C)C[C@H]1Oc2cc(-c3ccccc3)ccc2S(=O)(=O)N([C@@H](C)CO)C[C@H]1C,-3,4,-2.2,i
Cc1ccc(S(=O)(=O)N[C@@H]2CC[C@H](CCn3cc(C4CCCCC4)nn3)O[C@@H]2CO)cc1,-5,-19,-0.8,i
N#Cc1ccc(OCC(=O)Nc2cc(S(=O)(=O)N3CCOCC3)ccc2N2CCCC2)cc1,-6,0,1.3,i
COC(=O)c1cc2c(c3c4ccccc4n(S(=O)(=O)c4ccc(C)cc4)c13)C(=O)N(CC(C)C)C2,5,2,16,i
O=C(Nc1ccc(Cl)cc1)N1C[C@H]2[C@@H](c3ccccc31)[C@H](CO)N2C(=O)C1CC1,-22,-28,-0.4,i
C[C@H]1CCCCO[C@H](CN(C)S(=O)(=O)c2ccccc2)[C@@H](C)CN([C@@H](C)CO)C(=O)c2cc(NS(=O)(=O)c3ccc(F)cc3)ccc2O1,0,-1,7.0,i
CNC[C@H]1OCCCC[C@@H](C)Oc2ccc(NC(=O)Nc3ccc(C(F)(F)F)cc3)cc2C(=O)N([C@H](C)CO)C[C@@H]1C,-7,-34,14,+
CN1C(=O)c2cc(NC(=O)c3cccc(F)c3)ccc2OC[C@H]2O[C@@H](CC(=O)NCc3ccccc3Cl)CC[C@@H]21,-17,-31,-4.7,i
C[C@@H]1CN([C@H](C)CO)C(=O)c2cc(NC(=O)NC3CCCCC3)ccc2O[C@@H]1CN(C)S(=O)(=O)c1cn(C)cn1,-6,-15,-3.0,i
CN(C)CC(=O)N1[C@H](C#N)[C@H](c2ccc(-c3cccc(C(=O)N(C)C)c3)cc2)[C@H]1CO,5,3,1.5,i
C[C@H](CO)N1C[C@H](C)[C@H](CN(C)Cc2ccc(-c3ccccc3)cc2)Oc2ccc(NC(=O)NC3CCCCC3)cc2C1=O,-4,2,2.0,i
CCCNC(=O)C[C@H]1CC[C@@H]2[C@@H](COc3ccc(NC(=O)c4cccc(F)c4)cc3C(=O)N2C)O1,-1,5,-2.0,i
C[C@@H]1CCCCO[C@H](CN(C)S(=O)(=O)c2ccc(F)cc2)[C@@H](C)CN([C@@H](C)CO)C(=O)c2cc(NC(=O)Cc3ccccc3)ccc2O1,0,-2,-0.8,i
Cc1cccc(S(=O)(=O)N2CCCCN3[C@H](C2)[C@H](c2ccc(C#CC4CC4)cc2)[C@@H]3CO)c1,4,7,-0.2,i
CC(C)NC(=O)N(C)C[C@H]1OCCCC[C@@H](C)Oc2ccc(NS(C)(=O)=O)cc2C(=O)N([C@@H](C)CO)C[C@@H]1C,-2,-5,-1.4,i
COc1ccc2c3c([nH]c2c1)[C@H](CO)N(C(=O)C1CCC1)CC31CCN(C(=O)NC(C)C)CC1,2,-5,-2.0,i
C[C@@H]1CN([C@H](C)CO)C(=O)Cc2cc(NC(=O)C3CC3)ccc2O[C@H]1CN(C)C(=O)Nc1ccccc1,4,11,-1.1,i
CC(C)NC(=O)N1CC[C@@H]2[C@H]1c1cc(-c3ccc(F)cc3)ccc1N(C)[C@@H]2CO,-9,-18,-1.7,i
CCCNC(=O)N1CC2(C1)CN(Cc1cccc(OC)c1)[C@@H](CO)c1[nH]c3cc(OC)ccc3c12,-1,3,-0.4,i
CC(C)(C)OC(=O)N1C[C@@]23C[C@H](c4cccc(F)c4)[C@@H](C[C@@H]2S1(=O)=O)O3,10,14,1.7,i
C[C@H]1CN([C@@H](C)CO)C(=O)c2cc(C#CCN(C)C)cnc2O[C@@H]1CN(C)C(=O)c1ccc(F)cc1,-1,-2,-3.2,i

# Given as labelled records: four of the compounds above.
Structure: CNC[C@H]1OCCCC[C@@H](C)Oc2ccc(NC(=O)Nc3ccc(C(F)(F)F)cc3)cc2C(=O)N([C@H](C)CO)C[C@@H]1C
  Ecoli rRNA inh: -7; Ecoli rRNA inh OD600: -34; Ecoli rRNA inh RFP: 14; FGF22 binding: +
Structure: CN1C(=O)c2cc(NC(=O)c3cccc(F)c3)ccc2OC[C@H]2O[C@@H](CC(=O)NCc3ccccc3Cl)CC[C@@H]21
  Ecoli rRNA inh: -17; Ecoli rRNA inh OD600: -31; Ecoli rRNA inh RFP: -4.7; FGF22 binding: i
Structure: C[C@@H]1CN([C@H](C)CO)C(=O)c2cc(NC(=O)NC3CCCCC3)ccc2O[C@@H]1CN(C)S(=O)(=O)c1cn(C)cn1
  Ecoli rRNA inh: -6; Ecoli rRNA inh OD600: -15; Ecoli rRNA inh RFP: -3.0; FGF22 binding: i
Structure: CN(C)CC(=O)N1[C@H](C#N)[C@H](c2ccc(-c3cccc(C(=O)N(C)C)c3)cc2)[C@H]1CO
  Ecoli rRNA inh: 5; Ecoli rRNA inh OD600: 3; Ecoli rRNA inh RFP: 1.5; FGF22 binding: i

# New compounds follow
SMILES,Ecoli rRNA inh,Ecoli rRNA inh OD600,Ecoli rRNA inh RFP,FGF22 binding
C[C@@H]1CN([C@H](C)CO)C(=O)c2cc(C3=CCCCC3)cnc2O[C@@H]1CN(C)C(=O)Nc1ccc(F)cc1,-5,11,-1.8,i
COc1ccc(S(=O)(=O)N(C)C[C@@H]2Oc3ccc(NC(=O)Nc4cccc5ccccc45)cc3C(=O)N([C@@H](C)CO)C[C@@H]2C)cc1,-1,-1,1.9,i
CO[C@@H]1CN(C)C(=O)c2cc(NS(=O)(=O)c3ccc(C)cc3)ccc2OC[C@@H](C)N(C)C[C@@H]1C,2,3,-0.2,i
O=C(CCN1CCCCC1)N[C@H]1CC[C@H](CCNS(=O)(=O)c2ccc(F)cc2)O[C@@H]1CO,5,5,-3.7,i
CO[C@@H]1CN(C)C(=O)c2cc(NC(=O)C3CCC3)ccc2OC[C@@H](C)N(C(=O)NC(C)C)C[C@@H]1C,1,0,0.7,i
CC(C)NC(=O)Nc1ccc2c(c1)C(=O)N([C@@H](C)CO)C[C@@H](C)[C@@H](CN(C)S(C)(=O)=O)OCCCC[C@@H](C)O2,-3,-2,-4.4,i
COc1ccc(S(=O)(=O)N[C@H]2C=C[C@H](CC(=O)N3CCC(Cc4ccccc4)CC3)O[C@H]2CO)cc1,-4,-23,7.7,i
C[C@@H]1CCCCO[C@H](CN(C)Cc2ccc(C(=O)O)cc2)[C@H](C)CN([C@H](C)CO)C(=O)c2cc(NC(=O)Cc3ccccc3)ccc2O1,-3,-5,-1.4,i
Cc1ccccc1-c1cnc2c(c1)C(=O)N([C@@H](C)CO)C[C@@H](C)[C@@H](CN(C)C(=O)c1ccccc1)O2,1,2,0.8,i
CC(C)NC(=O)N(C)C[C@H]1Oc2c(NC(=O)c3nc4ccccc4s3)cccc2C(=O)N([C@@H](C)CO)C[C@H]1C,1,8,1.0,i
CCCNC(=O)N1CC2(CN(C(=O)C3CCCC3)C2)c2c([nH]c3cc(OC)ccc23)[C@@H]1CO,-3,-3,4.4,i
C[C@H]1CN([C@@H](C)CO)C(=O)Cc2cc(NC(=O)Nc3ccc(C(F)(F)F)cc3)ccc2O[C@H]1CN(C)S(=O)(=O)c1ccccc1,-2,0,-0.5,i
CC(C)CC#Cc1cnc2c(c1)C(=O)N([C@@H](C)CO)C[C@@H](C)[C@H](CN(C)Cc1cncnc1)O2,0,6,-0.6,i
CNC[C@H]1OCCCC[C@@H](C)Oc2ccc(NC(=O)Nc3ccc4c(c3)OCO4)cc2C(=O)N([C@H](C)CO)C[C@H]1C,2,2,-0.8,i
O=C(Nc1ccccc1F)N[C@H]1CC[C@H](CC(=O)N2CCCCC2)O[C@@H]1CO,6,6,0.1,i
CCCNC(=O)N[C@@H]1CC[C@@H](CCn2cc(C3CC3)nn2)O[C@@H]1CO,1,4,-1.9,i
O=C(C[C@H]1C[C@@H]2c3cc(NC(=O)NC4CCCC4)ccc3O[C@@H]2[C@H](CO)O1)NCc1ccc(Cl)cc1,-2,5,-2.4,i
COc1ccccc1CNC(=O)C[C@@H]1CC[C@@H]2[C@H](COC[C@@H](O)CN2C(=O)Nc2ccc(F)cc2)O1,4,6,-0.5,i
C[C@@H]1CN([C@@H](C)CO)C(=O)Cc2cc(NS(=O)(=O)c3ccccc3)ccc2O[C@H]1CN(C)Cc1ccc(-c2ccccc2)cc1,0,-8,3.5,i
CC(C)(O)C#Cc1ccc([C@H]2[C@H](CO)N3CCCCN(C(=O)c4cccnc4)C[C@@H]23)cc1,8,20,-2.1,i
CCC(=O)Nc1ccc2c(c1)C(=O)N(C)[C@@H]1CC[C@H](CC(=O)NCc3ccc(OC)cc3)O[C@@H]1CO2,-1,5,-2.5,i
CO[C@@H](CN(C)Cc1cc(F)ccc1F)[C@@H](C)CN(C(=O)Nc1ccc(F)cc1)[C@@H](C)CO,-5,-3,-3.5,i
O=C(NCC(F)(F)F)[C@@H]1[C@@H](CO)[C@@H]2Cn3c(ccc(-c4ccncc4)c3=O)[C@@H]2N1Cc1ccncc1,4,7,0.3,i
C[C@@H]1CN([C@@H](C)CO)C(=O)c2cccc(NC(=O)c3ccc(-c4nccs4)cc3)c2O[C@@H]1CN(C)S(=O)(=O)c1cccs1,-1,0,2.9,i
CC=Cc1ccc2n(c1=O)C[C@H]1[C@H](CO)[C@@H](C(=O)NCc3ccccc3)N(Cc3cncnc3)[C@@H]21 (mixture of isomers),4,5,0.7,i
# Remaining list, next part.
SMILES,Ecoli rRNA inh,Ecoli rRNA inh OD600,Ecoli rRNA inh RFP,FGF22 binding
C[C@H](O)[C@@H]1C(=O)N2CCc3c([nH]c4c(-c5ccccc5)cccc34)[C@@H]2C[C@@H]1N(C)CC1CCCCC1,-1,-7,6.5,i
C[C@@H]1CN([C@@H](C)CO)C(=O)c2cccc(NC(=O)c3nc4ccccc4s3)c2O[C@@H]1CN(C)S(=O)(=O)c1cccs1,-4,-3,0.0,i
C[C@H](CO)N1C[C@H](C)[C@@H](CN(C)S(=O)(=O)c2ccc(Cl)cc2)Oc2c(NC(=O)NC3CCCCC3)cccc2C1=O,-6,-16,3.1,i
O=C(Nc1ccc(Cl)cc1)N[C@H]1CC[C@@H](CCn2cc(-c3ccccc3F)nn2)O[C@H]1CO,-47,-72,-4.7,i
C[C@H](CO)N1C[C@H](C)[C@@H](CN(C)C(=O)C2CCC2)Oc2ncc(-c3ccccc3F)cc2C1=O,2,8,-0.2,i
CC(C)NC(=O)N1CC2(C1)[C@H](c1ccccc1)[C@@H](CO)N2Cc1cccnc1,3,7,0.2,i
N#C[C@H]1[C@@H](c2ccc(C3=CCCCC3)cc2)[C@H](CO)N1C(=O)c1cccc(F)c1,-46,-72,0.3,i
COCC(=O)Nc1ccc2c(c1)OC[C@@H](C)N(C(=O)c1ccccc1)C[C@@H](C)[C@@H](OC)CN(C)C2=O,1,1,-0.2,i
C[C@H]1CN([C@@H](C)CO)C(=O)Cc2cc(NC(=O)Cc3cn(C)c4ccccc34)ccc2O[C@H]1CN(C)CC1CCCCC1,2,-2,3.3,i
Cn1cnc(S(=O)(=O)N2C[C@H](O)COC[C@H]3O[C@H](CC(=O)NCc4ccc(F)cc4)CC[C@@H]32)c1,4,12,-5.5,i
COc1ccc(S(=O)(=O)Nc2ccc3c(c2)C(=O)N([C@@H](C)CO)C[C@H](C)[C@H](CN(C)C(=O)Nc2ccc(C(F)(F)F)cc2)O3)cc1,1,-3,-0.3,i
COc1ccccc1S(=O)(=O)N[C@H]1CC[C@@H](CCNC(=O)C2CCCCC2)O[C@@H]1CO,-3,1,-1.2,i
CO[C@H]1CN(C)C(=O)c2cc(NS(C)(=O)=O)ccc2OC[C@H](C)N(C(=O)C2CC2)C[C@H]1C,3,-4,0.8,i
O=C(NCC1CC1)[C@H]1[C@H](CO)[C@H]2Cn3c(ccc(-c4cccc(F)c4)c3=O)[C@H]2N1CC1CCCC1,-49,-74,20,i
C[C@@H]1CCCCO[C@H](CN(C)C(=O)Nc2ccc(C(F)(F)F)cc2)[C@H](C)CN([C@@H](C)CO)C(=O)c2cc(NC(=O)Nc3ccc4c(c3)OCO4)ccc2O1,0,-1,-2.7,i
COc1cc(NC(=O)[C@@H](Cc2ccccc2)NC(=O)[C@H]2O[C@@H](n3ccc(N)nc3=O)[C@H](O)[C@@H]2O)cc(OC)c1OC,10,7,2.7,i
C[C@H](CO)N1C[C@H](C)[C@@H](CN(C)S(=O)(=O)c2cccs2)Oc2ccc(NC(=O)Nc3ccc(F)cc3)cc2C1=O,-5,-5,6.3,i
Cc1ccc(S(=O)(=O)Nc2ccc3c(c2)C(=O)N([C@H](C)CO)C[C@H](C)[C@@H](CN(C)C(=O)Nc2c(C)noc2C)OCCCC[C@H](C)O3)cc1,1,6,1.5,i

# Assay outcomes: PubChem BioAssay, Broad Institute
